Ecoli rRNA inh = inhibitors of bacterial rRNA selective over humanized ribosomes; GFP signal change (wild-type ribosome), % (no concentration beside the values); AID 720706; actives 1.6% (n = 350,000); E. coli WT GFP vs humanized-ribosome RFP mutants, fluorescence, 24 h; hits give low values; DMSO median 0, no signal -100;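 active = significant combined selectivity score with lowered wild-type GFP, culture density cut under 30%, mutant RFP and density less affected; inactive = any of these conditions unmet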; also: one replicate is shown; some compounds called inactive have numbers as strong as hits
RanGTP-Imp inh = inhibitors of RanGTP-importin-beta interaction, primary screen, biochemical, FRET, CFP-Ran, YFP-importin-beta, homogeneous; actives 1.1% (n = 300,000); AID 2216; inhibition, % (no concentration beside the values); cell-free CFP-Ran/YFP-importin-beta FRET ratio;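 active = most replicates above 15%; inconclusive = exactly half above 15%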;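 also: 0% = DMSO wells and 100% = Ran loaded with GDP instead of GTP; wells of about 40 µL received 100 nL stock; the first replicate is given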
Vif TR-FRET = inhibitors of Vif binding to APOBEC3G peptide, primary screen, biochemical, TR-FRET, GST-Vif 1-94, biotin-A3G peptide, dose response retest (AID 1117319); TR-FRET GST-Vif / biotin-A3G peptide binding; higher % means a stronger effect; test concentration not given here; strong numbers were not always called active; inhibition, %, or IC50 in µM where a hit was titrated; actives 0.57% (n = 260,000);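 active = above the screen mean plus three standard deviations and confirmed in dose response; inconclusive = results disagree or hit not tested in dose response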;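 also: Vif residues 1-94 fused to GST binding biotinylated APOBEC3G peptide 110-148; 0% = full assay without inhibitor and 100% = GST in place of GST-Vif; retest series ran down from 100 µM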
MLL AF4-AF9 inh = MLL-AF4/AF9 protein interaction inhibition; AlphaScreen, biotin-AF4 peptide binding to FLAG-AF9; actives 0.47% (n = 350,000); P42568; inhibition, % at 10 µM;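 active = every replicate reaching a set inhibition limit, whatever the replicate mean, cut at about 25% in these data; inconclusive = mean inhibition reaches that limit but some replicates miss it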;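 also: 0% = plate neutral control median and 100% = total signal loss; the record names both 10 and 1 µM as test concentration; the first replicate is given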
Target sequence (P42568 whole entry, looked up): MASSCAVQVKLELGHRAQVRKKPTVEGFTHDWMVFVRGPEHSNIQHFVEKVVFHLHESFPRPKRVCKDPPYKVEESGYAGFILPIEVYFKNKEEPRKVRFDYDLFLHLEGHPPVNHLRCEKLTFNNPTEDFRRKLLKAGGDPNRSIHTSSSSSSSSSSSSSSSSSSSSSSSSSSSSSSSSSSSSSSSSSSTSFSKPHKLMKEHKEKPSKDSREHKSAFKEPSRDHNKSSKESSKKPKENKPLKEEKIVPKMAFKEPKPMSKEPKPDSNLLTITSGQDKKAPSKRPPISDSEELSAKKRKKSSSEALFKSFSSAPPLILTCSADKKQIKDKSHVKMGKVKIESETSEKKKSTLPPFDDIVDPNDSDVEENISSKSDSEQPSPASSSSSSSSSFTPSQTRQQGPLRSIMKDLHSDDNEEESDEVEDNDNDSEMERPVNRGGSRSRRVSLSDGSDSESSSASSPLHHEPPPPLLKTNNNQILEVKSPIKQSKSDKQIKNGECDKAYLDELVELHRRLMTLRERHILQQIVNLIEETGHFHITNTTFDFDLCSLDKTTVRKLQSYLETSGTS
Beta apoptosis = blocks beta cell apoptosis; INS-1E cytokine-induced death, ATP luminescence, 48 h; percent of positive-control rescue, neutral wells zero; protection from apoptosis, % (no concentration beside the values); actives 0.8% (n = 300,000);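 active = all replicates at 75% or more, or half of them and the mean; inconclusive = half reach 75% but not the mean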;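 also: 0% = cytokine-treated negative control wells and 100% = positive control rescue; higher means more ATP so stronger rescue from cytokine killing; wells of about 40 µL received 100 nL stock; the first replicate is given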
T cruzi inh = blocks replication of Trypanosoma cruzi. AID 1885. T. cruzi beta-gal in NIH3T3, luminescence, 90 h. actives 1.4% (n = 300,000). inhibition, % (no concentration beside the values);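 active = mean inhibition across valid replicates above about 55%, limit read from the data; inconclusive = mean below that limit but half or more replicates reach it; inactive = mean below it, under half of replicates reach it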;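 also: signal also drops with host cell toxicity which is not excluded here; 0% = plate median of DMSO wells and 100% = zero luminescence signal; higher percent means less beta-gal luminescence so fewer parasites; stock transfer was 50 nL into about 50 µL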
Calb FLC = affects C. albicans growth with fluconazole. C. albicans CaCi-2 (fluconazole-resistant clinical isolate) + fluconazole, Alamar Blue growth, 48 h. growth inhibition, % (no concentration beside the values). actives 0.57% (n = 300,000). AID 1979;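 active = most replicates above 75%; inconclusive = exactly half above 75%; inactive = most below 75%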;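 also: all wells also contain fluconazole at 8 µg/ml as a sub-toxic cotreatment; 0% = median of DMSO wells and 100% = median of geldanamycin control wells; wells of about 8 µL received 7.5 nL stock; the first replicate is given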
Bfl-1 A1 inh = inhibitors of the anti-apoptotic protein A1, read as caspase activation | MEF A1-2A-BIM cells, Caspase-Glo 3/7 luminescence, 3 h; percent of clofoctol response, vehicle zero | caspase activation, % (test concentration not listed) | actives 0.066% (n = 330,000);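 active = over half of replicate activation scores above 10%, or exactly half above 10 with the replicate mean above 10; inconclusive = replicate mean below 10 yet half the replicates above 10; inactive = over half of replicates below 10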;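 also: wells of about 30 µL received 50 nL stock; many hits fall short of the cut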
Ecoli rRNA inh OD600 = second read-out of Ecoli rRNA inh, no call of its own (marks repeat the call); OD600 change, %; measured here: OD600 growth;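 optical density of the mix in the first replicate; 0 = DMSO median and -100 = no signal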
Ecoli rRNA inh RFP = second read-out of Ecoli rRNA inh, no call of its own (marks repeat the call); RFP signal change, %; measured here: RFP humanized mutant strains;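 first replicate; 0 = DMSO median and -100 = no signal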
Numbers without * were called inactive; ? = inconclusive; . = not tested or not shown. These rows are one share of the data. The share of hits here may be higher or lower than overall.

SMILES | Ecoli rRNA inh | Ecoli rRNA inh OD600 | Ecoli rRNA inh RFP | RanGTP-Imp inh | Vif TR-FRET | MLL AF4-AF9 inh | Beta apoptosis | T cruzi inh | Calb FLC | Bfl-1 A1 inh
CSCCC(NC(=O)c1ccco1)C(=O)Nc1ccc(C)c(S(=O)(=O)N2CCOCC2)c1 (stereo unspecified) | -1 | 1 | 1.3 | 0.5 | 2% | -6.8 | 0 | 0 | -1 | 1.0
COc1cccc(C2/C(=C(/O)c3ccc4c(c3)CC(C)O4)C(=O)C(=O)N2CCCn2ccnc2)c1 (stereo unspecified) | 22 | 16 | 1.1 | 2.1 | . | 2.3 | -3 | -7 | 0 | -0.2
Cc1cccc(OCCN2C(=O)C(=O)c3cc(C)ccc32)c1 | -45 | -41 | -5.3 | -0.9 | 4% | . | 11 | 23 | -7 | 2.1
COc1ccc(CN(CC2CCCO2)C(=O)c2cc3sccc3n2C)c(OC)c1 (stereo unspecified) | -32 | -44 | -5.6 | 1.9 | -4% | 6.5 | -1 | 11 | 9 | 1.2
Clc1ccc(C2=Nn3c(nnc3-c3cccs3)SC2)cc1 | . | . | . | 4.0 | 6% | . | -1 | -14 | 2 | 1.8
Cc1cc(C)nc(Nc2ccc(N3CCCC3)cc2)n1 | . | . | . | -3.1 | 24% | . | 7 | 41 | 7 | -3.9
Cc1ccc(S(=O)(=O)NCC(=O)N(CC(=O)NCc2ccc(F)cc2)CC2CCCO2)cc1 (stereo unspecified) | 3 | 5 | -1.0 | 0.9 | -4% | 1.3 | -5 | -10 | 2 | -0.1
O=C(OCC(=O)N1CCCc2ccccc21)c1cccc(S(=O)(=O)N2CCc3ccccc32)c1 | -1 | -7 | 3.0 | 1.1 | 19% | -1.2 | 0 | 6 | -2 | 0.3
Cc1ccccc1NS(=O)(=O)c1cc(C(=O)N2CCc3ccccc3C2)ccc1C | . | . | . | -2.4 | 2% | . | 2 | 38 | 7 | -0.1
COc1ccccc1C1OC2=C(Nc3ccc([N+](=O)[O-])cc3N2)C1=O (stereo unspecified) | 14 | 3 | 7.2 | 1.8 | 10% | 4.2 | 0 | 33 | 39 | -1.1
CN(C)C=NC(=O)c1[nH]c2ccc(Cl)cc2c1-c1ccccc1 | -69 | -82 | -21 | 4.8 | -11% | 2.5 | -19 | -4 | -9 | 0.7
O=C1/C(=C\Nc2ccc(OC(F)(F)F)cc2)CCN1c1ncccn1 | . | . | . | 3.1 | -1% | . | -6 | 2 | -3 | -0.8
Cc1ccc(NC(=O)CCC(=O)c2cccs2)nc1 | 9 | 5 | 3.1 | 0.8 | 1% | 1.9 | -19 | -14 | -4 | 0.7
Cc1ccc(N(CC(=O)NCc2ccccc2)C(=O)c2csnn2)cc1 | 8 | 0 | 0.8 | 1.1 | 2% | 0.6 | -3 | -6 | -10 | 0.2
CCSc1nnc2n(-c3ccc(OC)cc3)c(=O)c3c4c(sc3n12)CCCC4 | . | . | . | 3.4 | 20% | . | 5 | 43 | 16 | -0.4
O=C(/C=C/c1ccc(O)cc1)c1ccc(O)cc1O | -48 | -71 | -17 | 0.2 | 9% | 7.0 | 0 | -57 | . | 3.7
Cc1cc(/C=N/n2cnnc2)c(C)n1-c1ccc2ncccc2c1 | -5 | -6 | 0.5 | 13 | . | 12 | -10 | -10 | -2 | 0.4
CCOC(=O)C1=NN(C(=O)Nc2cccc(C(F)(F)F)c2)C2C(=O)N(c3cccc(C(F)(F)F)c3)C(=O)C12 (stereo unspecified) | . | . | . | 6.0 | 2% | . | 2 | 0 | -2 | -1.5
O=C(CNC(=O)c1ccco1)N=Nc1c(O)[nH]c2ccc(Br)cc12 | 8 | 7 | -0.2 | 3.5 | 8% | -0.8 | -4 | -11 | -6 | -0.1
O=C(Nc1scc(-c2ccccc2)c1C(=O)O)c1ccccc1F | -26 | -26 | -2.0 | -0.8 | -1% | -1.1 | -5 | 6 | 9 | -7.1
O=C(O)c1cccc(CN2C(=O)CSC2=O)c1 | . | . | . | -2.0 | 6% | . | -6 | -7 | -6 | 0.1
COc1ccc([C@H]2C=C3CN(C(=O)OC(C)(C)C)S(=O)(=O)[C@H]3C[C@H]2OC(=O)c2cccs2)cc1 | -1 | -2 | -0.3 | -3.7 | 27% | 2.3 | -3 | 14 | -5 | 0.1
COc1ccc(-c2cn(-c3ccc(C)cc3)c(=O)n2CC(=O)Nc2ccc(OC)c(OC)c2)cc1 | . | . | . | 8.5 | -7% | . | -1 | 6 | 5 | -0.3
CC(C)CN(C(=O)c1ccc(=O)n(C)n1)c1nc2ccccc2s1 | . | . | . | -2.8 | 21% | . | -6 | -7 | 19 | 0.0
CCCCCOC(=O)C1[C@H]2C(=O)N(CCCOC)C[C@]23C=C[C@H]1O3 (stereo partly specified) | . | . | . | 1.2 | 5% | . | -4 | 3 | -6 | 0.4

Single records, as listed above:
COc1ccc(-c2cn(-c3ccc(C)cc3)c(=O)n2CC(=O)Nc2ccc(OC)c(OC)c2)cc1 in the list: Ecoli rRNA inh: .; Ecoli rRNA inh OD600: .; Ecoli rRNA inh RFP: .; RanGTP-Imp inh: 8.5; Vif TR-FRET: -7%; MLL AF4-AF9 inh: .; Beta apoptosis: -1; T cruzi inh: 6; Calb FLC: 5; Bfl-1 A1 inh: -0.3
Clc1ccc(C2=Nn3c(nnc3-c3cccs3)SC2)cc1 in the list: Ecoli rRNA inh: .; Ecoli rRNA inh OD600: .; Ecoli rRNA inh RFP: .; RanGTP-Imp inh: 4.0; Vif TR-FRET: 6%; MLL AF4-AF9 inh: .; Beta apoptosis: -1; T cruzi inh: -14; Calb FLC: 2; Bfl-1 A1 inh: 1.8

More results:
SMILES | Ecoli rRNA inh | Ecoli rRNA inh OD600 | Ecoli rRNA inh RFP | RanGTP-Imp inh | Vif TR-FRET | MLL AF4-AF9 inh | Beta apoptosis | T cruzi inh | Calb FLC | Bfl-1 A1 inh
CC(C)CC(=O)Nc1nnc(SCC(=O)Nc2ccc(F)cc2)s1 | 17 | 13 | 2.0 | 0.8 | 5% | -1.1 | 0 | -10 | -17 | -0.3
CCOC(=O)N1CCc2c(sc3c2C(=O)NC(c2ccccc2)N3)C1 (stereo unspecified) | . | . | . | 7.3 | 1% | . | . | -6 | 38 | -1.8
CCOC(=O)c1ccc(NC(=O)CSc2nc3cccnc3n2C)cc1 | . | . | . | 4.5 | -62% | . | -4 | -6 | -3 | 2.2
CC(OC(=O)C1CCN(c2ccc(C(F)(F)F)cn2)CC1)C(=O)c1ccccc1 (stereo unspecified) | -2 | -16 | -2.5 | 5.3 | 4% | 0.4 | . | 2 | 0 | -0.5
N#C/C(=C\c1ccc(Cl)cc1)c1n[nH]c(Cn2cncn2)n1 | -12 | -6 | 0.2 | -0.9 | 9% | . | -5 | -6 | 3 | -1.0
Cc1cc(=O)[nH]c(SCC(=O)Nc2c(C)n(C)n(-c3ccccc3)c2=O)n1 | 9 | 21 | 7.7 | . | -4% | -3.3 | -6 | . | . | 1.0
Cc1ccc(Cn2c(C(C)Nc3nc(-c4ccc(C)cc4)cs3)nc3cc(Cl)c(Cl)cc32)cc1 (stereo unspecified) | . | . | . | 6.4 | . | . | -2 | -25 | -15 | 0.0
CNC(=O)c1cc(C(=O)c2c(Cl)cccc2Cl)c[nH]1 | -3 | -17 | -7.2 | ? | -1% | 0.9 | -3 | 8 | -1 | 1.2
CN1CCN(C(=S)Nc2ccc(Oc3ccccc3)cc2)CC1 | -7 | -13 | -2.8 | -0.1 | -2% | 4.3 | -9 | 2 | -43 | -0.3
CC(C)=CC(=O)N1CCCC(N2CCN(c3ccc(F)cc3)CC2)C1 (stereo unspecified) | 2 | 9 | -3.4 | ? | . | -3.1 | 0 | -2 | -6 | 0.5
CCOc1ccc(C(C)=O)cc1CSc1nnc(-c2ccoc2C)n1N | . | . | . | -3.8 | ? | . | . | 7 | -3 | 1.6
COc1ccc(OCC(=O)OCC(=O)Nc2cc(S(=O)(=O)N3CCOCC3)ccc2Cl)cc1 | 8 | 7 | -2.9 | . | 2% | 0.6 | -6 | . | . | -0.4
CCC1(C)Cc2c(sc(NC(=O)CCC(=O)O)c2C#N)CO1 (stereo unspecified) | . | . | . | 0.5 | 64% | . | -4 | -15 | 0 | -0.1
COc1cc(C(=O)NCC(=O)N2CCN(S(=O)(=O)c3ccccc3)CC2)cc(OC)c1OC | 11 | 13 | 0.6 | 2.5 | 2% | -1.7 | . | 6 | -10 | -0.1
NCCc1nnc(SCC(N)=O)o1 | . | . | . | 4.3 | -1% | . | -3 | -6 | 9 | -0.4
Cc1c(C(C)C)c(=O)n(-c2ccc(S(=O)(=O)NCc3ccccc3)cc2)n1C | 20 | 12 | -1.1 | ? | -1% | 0.0 | 105* | -43 | 11 | -0.6
O=Nc1c2nc3ccccc3n(O)c-2c2ccccc12 | . | . | . | 3.0 | -2% | . | 10 | 4 | 3 | -7.4
Cc1ccc(S(=O)(=O)Nc2cc(C(=O)O)ccc2N2CCCCC2)cc1 | -8 | -7 | -1.5 | -2.4 | 25% | -0.6 | -1 | . | 33 | 0.0
Cc1ccc(S(=O)(=O)Cc2ccc(C(=O)N3CCN(c4ccccn4)CC3)o2)cc1 | -4 | -8 | 1.9 | 0.8 | 0% | 3.5 | -3 | 14 | -4 | 0.3
Cc1ccsc1C(=O)N(c1nc2ccccc2s1)c1c(C)cccc1C | . | . | . | 4.1 | -10% | . | 5 | ? | -6 | 0.0
Cc1ccc(C)c(OCCC(=O)NNC(=O)c2ccncc2)c1 | 0 | 0 | -0.1 | 9.8 | 0% | -0.9 | -3 | -3 | 2 | 0.0
CCNc1nc(NCC)n2c(SCC(=O)c3ccc(C(C)C)cc3)nnc2n1 | 6 | -4 | -3.2 | 0.6 | 9% | -1.4 | -2 | 24 | -9 | 1.2
CC1Cc2ccccc2N1C(=O)c1ccc2snnc2c1 (stereo unspecified) | -33 | -35 | -8.9 | . | 1% | -1.1 | 1 | . | . | -0.6
CCc1ccccc1NC(=O)CNC(=O)c1cccc(S(=O)(=O)N2CCN(Cc3ccccc3)CC2)c1 | 0 | -26 | -0.2 | 0.2 | . | -6.3 | -4 | 3 | 7 | -0.2
O=C(NNS(=O)(=O)c1ccc(F)cc1)c1ccccc1F | 11 | 11 | 2.6 | -0.4 | -3% | 0.5 | -3 | -16 | 10 | 0.8
CCn1c(SCC(=O)N/N=C/c2cc(OC)c(OC)c(OC)c2)nc2ccccc21 | . | . | . | -1.5 | 16% | -3.4 | 6 | 2 | -13 | -0.1
Cc1cccc(OCc2nnc(SCC(=O)N3c4ccccc4Sc4ccc(Cl)cc43)o2)c1 | 7 | 3 | -0.7 | -0.7 | . | -6.2 | 4 | 24 | 0 | 0.0
